# From PubChem BioAssay
# AID504770 – growth inhibition of E. coli YBA685, primary screen, V. cholerae RctB inhibitors; z-score (test concentration not listed); E. coli YBA685 rctB-dependent plasmid, OD600 growth, 3 h; hits give low values; 0.27% of 130,000 active;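 active = z-score under -2 on both plates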;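 also: wells of about 30 µL received 100 nL stock; score is relative to mean and SD of the test wells; the first replicate is given; strong numbers were not always called active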
# CapD inh – Bacillus anthracis CapD inhibitors, primary screen, biochemical, fluorescence intensity. CapD gamma-glutamyltranspeptidase (Bacillus anthracis Ames Ancestor). purified CapD enzyme, fluorescence intensity read-out; hits give low values; some hits fall short of the stated cut. z-score (test concentration not listed). 0.23% of 140,000 active. AID 492967, 2010;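 active = z-score under -4 in either of two replicates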;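 also: stock transfer was 100 nL into about 40 µL; score is relative to mean and spread of the plate; one replicate is shown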
# Numbers without * were called inactive; nt = not tested or not shown. The list is partial; the hit share may differ from the screen's.
SMILES	CapD inh	AID504770
Cc1[nH]n(-c2ccccc2)c(=O)c1CC(=O)O	nt	0.15
Cn1c(Cc2ccccc2)nc2ccccc21	0.025	1
COc1ccc(N(C)C(=O)Cc2c(C(=O)O)[nH]c3ccccc23)cc1	0.035	0.05
Cc1ccc(C(=O)NCS(=O)(=O)c2ccccc2)cc1	-1.3	-0.95
Cc1cc(C)nc(NS(=O)(=O)c2ccc(NC(=O)CN3C(=O)C4CC=CCC4C3=O)cc2)n1 (configuration not stated)	nt	-0.45
CN1CCN(CCCNC(=O)Cn2ncc3c4ccccc4n(Cc4ccccc4F)c3c2=O)CC1	8.7	-0.35
Clc1cccc(Cl)c1CN(Cc1ccccc1)c1ncnc2nc[nH]c12	0.49	0.3
CCc1c(C)sc(NC(=O)c2cc(CC(C)C)on2)c1C#N	-0.05	0.05
Cc1ccc(SC(=O)c2ccno2)cc1	-1.7	-0.2
CCc1ccc(NS(=O)(=O)c2cc(Br)cnc2N)cc1	-0.56	0.25
O=S(=O)(c1cnc[nH]1)N1CCc2ccccc21	-0.28	-0.75
CC(C)(CO)NC(=O)c1cc(-c2ccc(Cl)cc2Cl)on1	nt	0.4
Clc1cccc(CNCc2cccs2)c1	nt	0.8
COc1ccc(Oc2nccnc2C#N)cc1	0.22	-0.85
O=C(NCc1ccccc1)NC1(C(=O)NCC2CCCO2)CCCCC1 (configuration not stated)	nt	-0.95
Cc1cccc2c1-c1sc(C(=O)N3CCN(c4ccc(Cl)cc4)CC3)cc1CO2	-0.91	-1.1
O=C(Nc1ccc(CSc2cccc(C(F)(F)F)c2)cc1)c1ccccc1	-0.28	nt
S=c1[nH]nc(NNc2ccccc2)n1Nc1ccccc1	nt	-1.7
O=S1(=O)CCC(N2COc3c(cc(Cl)c4cccnc34)C2)C1 (configuration not stated)	-0.84	0.2
CN(Cc1ccccc1)C1CCN(CCc2ccccc2)CC1	0.24	-0.2
CCOC(=O)c1ccc(NC(=S)N2CCN3C(=O)c4ccccc4C32c2ccccc2)cc1 (configuration not stated)	-0.21	nt
CCOC(=O)C1Sc2nnc(C)n2NC1c1ccc2c(c1)OCO2 (configuration not stated)	nt	-0.5
COc1ccc(Cl)cc1NC(=O)Nc1ccccc1	-0.22	nt
N/C(CCN1CCOCC1)=N/O	-0.91	-0.95
O=C(NC(Cc1ccccc1)C(=O)NC1CCCCC1)OCCc1cccc(Cl)c1 (configuration not stated)	-0.64	nt
CCOc1ccc(NC(=O)c2cc(S(=O)(=O)N3CCN(c4cccc(C)c4C)CC3)ccc2F)cc1	-0.36	nt
Cc1ccc(C(=O)c2cc(C)sc2NC(=O)CN2CCN(C(=O)c3ccco3)CC2)cc1	nt	0.65
Cc1cc(=O)oc2ccc(OC(=O)CC(C)C)cc12	1.7	0.3
CCOC(=O)c1ccc(NC(=O)C2CCN(c3nnc(-n4cccc4)s3)CC2)cc1	-0.12	-0.95
COc1cc(/C=C2\C(=O)NC(=S)N(c3ccc(C(C)C)cc3)C2=O)ccc1OCC(=O)O	0.17	nt
CCOc1ccc(Oc2ccc(N)cc2)cc1	0.15	-0.05
Cc1ccc(C(=O)CC2OC(=O)c3ccccc32)o1 (configuration not stated)	nt	-1.1
CC(C)c1ccc(-n2cnc3cc(C(=O)NCc4ccc5c(c4)OCO5)ccc32)cc1	-0.37	nt
O=C1c2ccc([N+](=O)[O-])cc2C(=O)N1C1C(=O)N(c2cccc(C(F)(F)F)c2)C1c1cccs1 (configuration not stated)	-0.13	nt
CC1=CC(C)(C)N(C(=O)CSc2nc3ccccc3o2)c2ccccc21	0.12	nt
CCC(=O)N1CCc2cc(S(=O)(=O)Nc3ccccc3OC)ccc21	0.41	-1.1
CC(=O)n1cc(-c2ccncc2)c2ccccc21	-1.2	-0.7
CN(C=O)CP(=O)(O)CN1CCOCC1	0.22	-0.75
CCn1c(SCc2ccccc2OC)nc2cc(S(N)(=O)=O)ccc21	nt	0.55
COc1ccc(OC)c(NC(=O)c2oc3ccccc3c2NC(=O)CC(C)(C)C)c1	nt	-0.75
Cc1ccc(NC(=S)NCCN(C2CCCCC2)C2CCCC2)cc1	1.9	0.15
N#Cc1cc(-c2ccc(Cl)cc2)no1	nt	-2.5*
NC(=O)C12CCC(CC1)C2	-0.01	-0.75
COc1cccc(OCc2cc(C3Nc4ccccc4C(=O)N3Cc3ccco3)ccc2OC)c1 (configuration not stated)	58	nt
CCOC(=O)c1c2n(c3cc(Br)c(OC)cc13)CCN(c1ccccc1)C2	0.18	nt
O=C(NC(=O)c1c(Cl)cccc1Cl)Nc1cc(F)c(Br)cc1F	-0.005	nt
O=C(c1cc2ccccc2cc1OCc1nnc(-c2cccs2)o1)N1CCOCC1	nt	-0.35
COC(=O)C(C)N1C(=O)S/C(=C/c2ccc(N3CCCCCC3)o2)C1=O (configuration not stated)	-0.77	-0.4
O=C1c2ccccc2NC(c2ccc(F)c(Oc3ccccc3)c2)N1c1ccc(F)cc1 (configuration not stated)	60	nt
COc1ccc(/C=C2\SC(=O)N(CCNC(=O)c3nn(C)c(=O)c4ccccc34)C2=O)cc1	nt	-0.1
CCn1c(N)nc2ccccc21	17	-1
Cc1ccc2cccc(SCc3ccc(Br)cc3)c2n1	35	0.85
Cc1ccc(C)c(SC(C(=O)NC(N)=O)C(C)C)c1 (configuration not stated)	nt	-0.6
CC1(C)CC(=O)C2=C(C1)OC(N)=C(C#N)C2c1ccc(-c2cc([N+](=O)[O-])ccc2Cl)o1 (configuration not stated)	-0.21	nt
O=C(CSc1nnc(NC(=O)c2c(F)cccc2F)s1)Nc1nnc(-c2cccc([N+](=O)[O-])c2)s1	-0.25	nt
Cc1cccc(CN2CCN(CC(=O)N3CCN(c4cccc(C)c4)C(C)C3)C2=O)c1 (configuration not stated)	-0.41	-0.55
COc1ccc(CCn2c(SCc3cc(C)on3)nc3sc4c(c3c2=O)CCCC4)cc1OC	nt	-0.5
O=C1CCCC2=C1C(c1ccc3c(c1)OCO3)c1c(ccc3ncccc13)N2 (configuration not stated)	19	-0.75
CCOC(=O)c1nnn(-c2nonc2N)c1CN1CCN(Cc2ccccc2)CC1	-0.11	nt
Cc1sc(NC(=O)c2ccco2)c(C(c2cccnc2)N2CCCC2)c1C (configuration not stated)	9.2	-1

# (continued)
SMILES	CapD inh	AID504770
CCn1cc(C(=O)NC2CCCC(C)C2C)c2cc(OC)c(OC)cc2c1=O (configuration not stated)	0.03	-0.45
O=C(c1cccs1)N1CCCC(c2nc3c(nnn3Cc3ccc(F)cc3)c(=O)[nH]2)C1 (configuration not stated)	nt	1.6
Cc1c(Cl)cc([N+](=O)[O-])cc1Cl	-0.27	nt
O=C(O)CN1C(=O)CCC1=O	nt	1.8
Cc1cc(CN2CCS(=O)(=O)CC2)no1	-0.28	-0.4
CCOc1ccc2oc(=O)cc(Cn3c(=O)c(OCC)nc4cccnc43)c2c1	15	0
COc1cccc2cc(C(=O)Nc3cccc(C)c3)c(=Nc3ccc(C(=O)O)cc3)oc12	0.15	nt
CCN(CC)Cc1c(C(=O)N/N=C(\C)c2ccc(O)cc2)nnn1-c1nonc1N	0.95	0.05
CCOC(=O)c1c(NCC(=O)N2CCOCC2)sc2c1CC(C)(C)NC2(C)C	nt	0.7
O=C(Cn1cc(S(=O)(=O)N2CCCC2)ccc1=O)Nc1ccc(N2CCCCC2)cc1	nt	-0.55
CN(C)c1ccc(NC(=O)c2cccc(N3C(=O)C4C5C=CC(C5)C4C3=O)c2)cc1 (configuration not stated)	-0.91	nt
N#CC(C#N)=Cc1cn(CCOc2ccc3c(c2)OCO3)c2ccccc12	nt	3.2
CCSc1nnc(C2CCN(Cc3ccncc3)CC2)n1C	nt	-0.95
c1ccc(-n2cnnc2)cc1	-0.18	-0.9
Cc1cc(=O)[nH]c(Nc2cccc(Br)c2)n1	0.085	-1.1
Cc1ccc(CNC(=O)CC(C)C)cc1	0.52	0
FC(F)(F)Oc1ccccc1-c1nnc(-c2ccccc2Cl)o1	9.9	-0.85
c1ccc(CN2CCC(c3nc4ccccc4[nH]3)CC2)cc1	nt	0.55
CN(C)CCC(=O)c1ccc(Br)cc1	-0.27	-0.8
C=CCC1CC(=O)N(c2ccc(C)c(F)c2)C1=O (configuration not stated)	0.64	0.7
N#CCCN(Cc1ccco1)C(=O)Nc1ccccc1	0.7	-0.35
CCCCN(c1nc(C)cc(OC)n1)S(=O)(=O)c1ccc(C)cc1	-0.12	nt
COc1cnc(-c2ccccn2)nc1-c1ccccc1	-0.13	nt
CCCn1c(NC(C)=O)nc2ccccc21	-0.22	nt
O=C(Nc1cccc(C(F)(F)F)c1)c1cccc(S(=O)(=O)N2CCCC2)c1	0.17	-1.1
CC(=O)Nc1cc(Cl)c(C)cc1N	0.46	0.45
CC(=O)NC1(c2cccc(F)c2)CCN(C(=O)NCc2ccccc2)CC1	nt	2
CC1(C)C2CC[C@]3(C)C(C(=O)C=C4[C@H]5C[C@@](C)(C(=O)O)CC[C@]5(C)CC[C@]43C)[C@@]2(C)CC[C@@H]1O (some centres not stated)	-1.5	nt
CCOC(=O)c1c(NC(=O)Cn2nc([N+](=O)[O-])c(Cl)c2C)sc2c1CCC(C)C2 (configuration not stated)	-0.17	nt
CC1=C(C(=O)OCc2ccccc2)C(c2cccs2)C(C#N)=C(N)O1 (configuration not stated)	-0.03	nt
CC(C)(C)OC(=O)N1CCC(CNS(=O)(=O)c2ccc3c(c2)OCCO3)CC1	-0.78	-0.95
Cc1ccc(N)c(C(O)c2ccccc2)c1 (configuration not stated)	0.08	-0.7
CCc1ccc(NS(=O)(=O)c2ccc(Br)cc2)cc1	-0.015	nt
N#C/C(=C\Nc1ccc(OC(F)(F)F)cc1)c1nc2ccccc2[nH]1	-0.42	1.1
O=C(Nc1ccccc1-c1nc2ccccc2s1)C1CCCN1S(=O)(=O)c1cccs1 (configuration not stated)	nt	0.5
Fc1c(F)c(F)c(Nc2ccccc2)c(F)c1F	0.37	0.85
CCN(CC)C(=O)C(c1ccccc1)n1nnc(-c2ccc(Br)cc2)n1 (configuration not stated)	nt	1.2
N#CC(C#N)(Cc1c(Cl)cccc1Cl)Cc1c(Cl)cccc1Cl	-0.32	nt
CCOc1ccc(N2C(=O)CC(Sc3nc(C)c(CC)c(C)c3C#N)C2=O)cc1 (configuration not stated)	-0.35	nt
Cc1ccc2nc(SC(C)C(=O)NCc3ccco3)[nH]c2c1 (configuration not stated)	nt	-0.6

# The list goes on, starting with the last 2 of the part before.
SMILES	CapD inh	AID504770
CCOc1ccc(N2C(=O)CC(Sc3nc(C)c(CC)c(C)c3C#N)C2=O)cc1 (configuration not stated)	-0.35	nt
Cc1ccc2nc(SC(C)C(=O)NCc3ccco3)[nH]c2c1 (configuration not stated)	nt	-0.6
COc1cccc(N/C(SCc2ccccc2Cl)=C(/C#N)C(=O)NCCc2ccc(OC)c(OC)c2)c1	-0.18	nt
COc1ccc(-c2noc(CC(=O)NCCN(C)C)n2)cc1	-0.74	0.25
O=S(=O)(NCCO)c1cccc2cccnc12	-0.035	-0.15
Nc1nc(CSCc2ccco2)nc(N2CCCCC2)n1	nt	2.8
O=C(O)CCNC(=O)C(c1ccccc1)c1ccccc1	nt	2.4
O=C1Nc2ccccc2N(O)N1c1ccccc1Cl	nt	-0.8
O=C(NNC(=S)Nc1ccc(F)cc1)c1ccccc1Cl	0.15	nt
Cc1ccc(C2CCN(C(=S)NCc3ccccc3)C2)cc1 (configuration not stated)	12	-0.35
CC(C)C(NC(=O)C1CCCCC1)C(=O)Nc1ccccn1 (configuration not stated)	0.36	0.65
CCOC(=O)C(C#N)C1C(=O)Nc2ccccc21 (configuration not stated)	nt	-1
O=C(Nc1ccc(-c2nc3ccccc3c(=O)o2)cc1)C1CC1	1.2	-0.45
NC(=O)CC1C(=O)N(c2ccc(Cl)cc2)C(=S)N1Cc1cccnc1 (configuration not stated)	0.81	-1.1
Nc1ccc(S(=O)(=O)N2CCCCCC2)cc1	0.57	-0.55
CC(C)n1ncc2c(C(=O)N(C)Cc3ccco3)cc(-c3ccccc3)nc21	nt	-0.65
CN(C)c1ccnc(-n2cccc2/C=N/OCc2ccc(F)cc2Cl)c1C#N	0.045	nt
Cc1ccc(C(=O)CSc2nc(C)cc(C)c2C#N)cc1	nt	0.65
CSc1ccccc1NC(=O)C1COc2ccccc2O1 (configuration not stated)	0.35	-0.9
COc1cc(OC)c(NC(=O)c2sc3ncn(CC(=O)N4CCN(c5ccccn5)CC4)c(=O)c3c2C)cc1Cl	0.84	nt
CC(=O)N1c2ccccc2C(=O)C1Sc1nc(C)cc(C)n1 (configuration not stated)	0.77	0.05
c1ccc(OCCSC2=NCCN2)cc1	nt	-1.4
O=C(O)C1CCCN1S(=O)(=O)c1ccc2ccccc2c1 (configuration not stated)	nt	2.1
N/C(=N\O)c1c(O)c2ccccc2[nH]c1=O	-0.74	0.7
COc1ccccc1/C(O)=C/C(=O)C(=O)Nc1sc2c(c1C#N)CCC2	1.3	2.8

# 3 compounds from above, arranged by formula weight, descending.
SMILES	CapD inh	AID504770
COc1ccc(-c2noc(CC(=O)NCCN(C)C)n2)cc1	-0.74	0.25
CC(C)C(NC(=O)C1CCCCC1)C(=O)Nc1ccccn1 (configuration not stated)	0.36	0.65
c1ccc(OCCSC2=NCCN2)cc1	nt	-1.4
